Source: PubChem BioAssay (Fisher Drug Discovery Resource Center)
NPYLR7 agonist – mosquito NPYLR7 agonism; HEK293T NPYLR7/Galpha15, GCaMP6s calcium fluorescence; hit rate 0.15% among 270,000; activation, % at 10 µM; in the data active = activation above about 40%;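 note: 0% = vehicle and 100% = reference agonist at the receptor; some compounds past the cut are filed as inactive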
NPYLR7 agonist max-min – second read-out of NPYLR7 agonist, no call of its own (marks repeat the call); activation, %; measured here: Max-Min RFU normalised activation; some inactives read as strong as hits;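 span of the calcium signal over five minutes; 0% = vehicle and 100% = native peptide agonist; compound fluorescence can raise it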
Active calls of the source: *; & = joins results of further samples. Only part of the results is shown (hit frequency here may not be typical).

Each structure is followed by: NPYLR7 agonist, NPYLR7 agonist max-min
CC(Cl)C(=O)N1CCN(c2nc(C3CC3)nc3sc4c(c23)CCCC4)CC1 (stereo not drawn)
 : -9.3, -2.1
CCN1CCN(c2c(CN(C3CC3)S(C)(=O)=O)c(C)nn2-c2cccc(F)c2)CC1
 : 16.8, 27.4
CC(C(=O)N1c2ccccc2NC(=O)C1(C)C)N1CCN(Cc2ccc3c(c2)OCO3)CC1 (stereo not drawn)
 : 2.1, -1.0
Cc1cc(C(=O)N(CCCN(C)C)c2nc3ccccc3s2)n(C)n1
 : -0.2, -1.8
COc1cccc(NC(=S)NCCc2cc3c(OC)ccc(OC)c3[nH]c2=O)c1
 : 2.9, 39.0
COc1cccc(CO[C@]2(C(=O)NC3CC3)CC(OCc3c(F)cccc3F)[C@H](O)[C@H](O)C2)c1 (stereo partly drawn)
 : 1.1, 3.3
CNc1cc(C(=O)N2CCCC(CCc3ccc(F)cc3)C2)ccn1 (stereo not drawn)
 : 4.9, 2.8
O=S(=O)(Nc1ccc2c(c1)OCO2)c1ccc(Br)s1
 : -0.8, -1.0
O=c1c2cnc3ncnn3c2ccn1C1CCCC1
 : 1.8, 4.7
O=[N+]([O-])c1cccc(C2Oc3ccccc3C3CC(c4ccc5c(c4)OCCO5)=NN32)c1 (stereo not drawn)
 : 3.7, 5.5
CCn1nc(C(=O)Nc2cc(C)nn2-c2nc3ccc(OC)cc3s2)cc1C
 : -8.5, -15.4
Cc1ccc(C)c(NC(=O)C2(C)CCCN2C(=O)C(C)C)c1 (stereo not drawn)
 : 3.9, -0.6
c1ccc(CC2(CNC3CC3)CC3CCC2C3)cc1 (stereo not drawn)
 : 6.8, 2.6
O=c1c2ccc(C(F)(F)F)cc2nc2n1CC/C2=C/c1csc(Br)c1
 : -0.5, 2.7
CCOCC(=O)N(C)CCC(O)c1ccccc1 (stereo not drawn)
 : 4.5, 4.1

Later entries
Each structure is followed by: NPYLR7 agonist, NPYLR7 agonist max-min
CC(C)n1nccc1NC(=O)c1ccc(=O)n(C)n1
 : 6.1, 7.8
CCCC(C)NC(=O)C1CCCN(C(=O)c2ccccc2F)C1 (stereo not drawn)
 : 7.7, 2.6
CCc1cc(=O)[nH]c2cc(NC(=O)Cc3ccccc3Cl)ccc12
 : 25.5, 21.3
CC(NC(=O)C(C)(C)c1ccccc1F)C(=O)N(C)C (stereo not drawn)
 : 12.2, 5.8
COc1ccc(C)cc1NC(C)C(=O)N1CCCCCC1 (stereo not drawn)
 : 9.3, 1.0
Cc1ccc(S(=O)(=O)NC(=O)c2cc(C)n(CCCN3CCOCC3)c2C)cc1
 : -1.2, -1.4
Cc1[nH]c(=O)sc1C(=O)NCc1ccc(Cl)c(Cl)c1
 : -6.5, -7.1
CC1CCCCN1CCCN1CC2=C(C1=O)C(c1cccc(Cl)c1Cl)NC(=O)N2C (stereo not drawn)
 : 22.9, 27.5
O=C(COCC(F)(F)F)N1CCN(C(=O)Cc2ccccn2)CC1
 : 9.5, 7.7
O=S1(=O)CCC=C1c1ccccc1CN1CCOCC1
 : -1.8, -2.5
CCN(CC)C(=O)Cn1cc(C(=O)NCCSc2nccn2C)nn1
 : 1.1, -0.6
CC(OC(=O)c1cc(-c2ccc(Cl)cc2)n[nH]1)C(N)=O (stereo not drawn)
 : 8.2, 4.2
CN(C)C(=O)N1CCC(C(=O)Nc2ccc(Oc3ccccc3)cc2)CC1
 : 0.9, -0.6
Cc1cccc(C(=O)N2CCCC(OCc3cccc(OC(F)(F)F)c3)C2)c1 (stereo not drawn)
 : -3.3, -0.6
COc1cc(OC)c(NS(=O)(=O)c2ccc(Cl)cc2)cc1Cl
 : -0.1, 4.0

(continued)
Each structure is followed by: NPYLR7 agonist, NPYLR7 agonist max-min
CN1CCC(NC(=O)C2(C)CCN2Cc2ccc3ccccc3c2)CC1 (stereo not drawn)
 : 1.8, -0.1
Cc1ccc(C(=O)OCC(=O)N2CCNC2=O)cc1NC(=O)c1ccco1
 : 6.7, 5.5
CCCc1cc(C(=O)OC)c(N2C(=O)CC(Sc3ccccc3C(=O)O)C2=O)s1 (stereo not drawn)
 : -9.5, -15.8
COc1cccc(C(=O)N2C(C(=O)NCc3ccccn3)COC23CCCCC3)c1 (stereo not drawn)
 : 0.8, 12.8
NC(=O)C1CCN(C(=O)CNc2ccc(Cl)c(C(F)(F)F)c2)CC1
 : 12.8, 12.7
CNC(=O)[C@@H]1C[C@H](N)CN1S(=O)(=O)c1cc(C)c(Cl)cc1C
 : -2.3, -4.1
O=C(Nc1ccc(F)cc1)c1cc(-c2ccc(Cl)s2)nc2ccccc12
 : -7.1, -9.7
COc1cc(C2=NC(=Cc3ccc(N4CCOCC4)s3)C(=O)O2)cc(OC)c1OC
 : 1.0, 29.3
COc1ccc(-n2ccnc2CN2CCN(c3nccnc3C)CC2)cc1
 : -0.2, -2.4
CC(O)CNc1nccnc1-c1cccc(/C=C/C(=O)O)c1 (stereo not drawn)
 : 23.9, 14.5
CC(C)C1CN(C(=O)Cn2cccnc2=O)CCCN1CC1CC1 (stereo not drawn)
 : 28.6, 19.4
CN1Cc2ccccc2CC1C(=O)NCCc1csc(-c2cccnc2)n1 (stereo not drawn)
 : 7.2, 5.7
O=S1(=O)CC/C(=N\NS(=O)(=O)c2ccc(Br)cc2)c2ccccc21
 : -0.1, -1.8
CCOC(=O)CC(=O)N1CCN(c2nc3nccc(-c4cccnc4)n3n2)CC1
 : 4.3, 4.4
O=C(CC1=CCCCC1)N1CCC(n2cnc3cc(C(F)(F)F)ccc32)CC1
 : 8.7, 18.2

Other records.
Each structure is followed by: NPYLR7 agonist, NPYLR7 agonist max-min
COc1cc(C)c(C(=O)N(CC(F)(F)F)C2CCC2)cc1OC
 : 1.3, 0.4
CC1(C)CC(=O)c2cc3c(N)c(C(=O)Nc4ccc(F)cc4)sc3nc2C1
 : -0.7, 5.2
NC(=O)C1CCCC1NC(=O)Nc1ccc(N2CCOCC2)c(F)c1 (stereo not drawn)
 : 0.9, -0.7
COc1cc(NCc2cc(-c3ccccc3)nn2C)ncn1
 : 17.5, 4.2
FC(F)(F)c1cccc(CNc2ncnc3[nH]ncc23)c1
 : 2.9, 1.5
Cc1cc([N+](=O)[O-])cc2c(N=Nc3cccc4cccnc34)c(O)[nH]c12
 : -9.4, -20.8
CN(C/C=C/c1ccco1)Cc1nc2ccc(F)cc2[nH]1
 : -1.0, -2.4
CCn1nnc2c(Nc3cccc(F)c3)ncnc21
 : 6.3, 11.8
CCN1CCN(C(=O)c2c(C3CC3)nn(-c3ccccc3Cl)c2C)CC1
 : 2.8, 4.2
O=C(/C=C/c1ccccn1)N1CCC(CN2CCCCCC2)CC1
 : 8.4, 3.4
Cn1nc(NC(=O)c2ccccc2C(F)(F)F)c2c1NC(=O)CC2c1ccccc1 (stereo not drawn)
 : 7.3, 6.2
CC(C)(CN1CCOCC1)NCc1cn[nH]c1-c1ccc(F)cc1
 : -0.9, -2.3
CSc1ccc(-c2nc(Cn3cnc(C4CC4)n3)c(C)o2)cc1
 : -3.6, -3.7
Cc1nc(N2CCC(C)CC2)ncc1-c1cc(=O)[nH]c(N2CCc3ccccc3C2)n1
 : -0.3, 36.8
COc1ccc(NS(=O)(=O)c2ccccc2OC(F)(F)F)c(C(=O)NCc2ccccc2)c1
 : 17.5, 12.7

Remaining list, next part.
Each structure is followed by: NPYLR7 agonist, NPYLR7 agonist max-min
COc1cc(CN2CCN(Cc3ccsc3)C(CCO)C2)cc(OC)c1 (stereo not drawn)
 : -2.2, -6.7
COC(=O)C1=C(C)NC(C)=C(C(=O)OC)C1C(=O)OCC(C)=O
 : 9.4, 10.1
C#CCN(C)Cc1ccccc1
 : -4.6&-0.9&1.4, -4.7&-5.0&1.5
COc1ccc(NC(=O)CNS(=O)(=O)c2cnn(C)c2)cc1Cl
 : 7.4, 4.4
COC(=O)[C@H]1C[C@@H](O)CCN1CC1CCOCC1
 : -3.1, -5.5
CC12CC(c3ccccc3O1)C(S(=O)(=O)c1ccc(Br)cc1)C(=O)N2 (stereo not drawn)
 : 9.4, 9.0
CCC(c1nc2ccccc2c(=O)n1-c1ccc(OC)cc1)N(Cc1ccccc1)C(=O)c1cc(C(F)(F)F)cc(C(F)(F)F)c1 (stereo not drawn)
 : -0.9, 16.2
NC(=O)Cn1c(CO)cnc1SCCc1ccccc1
 : -0.8, -0.5
Cc1nc2ccc(C(=O)N3CCCC(CNC(=O)c4ccc(F)cc4)C3)cc2nc1C (stereo not drawn)
 : 4.6&11.0, 1.2&11.0
CCN(CC)c1ccc(/C=N\NC(=O)CSc2nnc(-c3ccc(Cl)cc3)n2-c2ccccc2)c(O)c1
 : 6.7, 7.6
CCn1nc(C)cc1-c1nn2c(C3CC3)nnc2s1
 : 1.3, 1.3
Nc1nc(SCC(=O)Nc2ccc(Cl)cc2)[nH]c(=O)c1NC(=O)c1ccc(C(F)(F)F)cc1
 : 2.3, 1.7
Cc1ccc2c(c1)CN(Cc1cn[nH]c1-c1ccc(F)cc1)CC(C)O2 (stereo not drawn)
 : 5.8, -4.2
CC(C)(C(N)=O)N1CCN(C(=O)c2cc(C(F)(F)F)cc(C(F)(F)F)c2)CC1
 : 12.7, 11.4
CSc1ccccc1-n1c(C2C3CCCCC32)n[nH]c1=S (stereo not drawn)
 : -9.2, -13.6

Whole records as entered above. Screens in order: NPYLR7 agonist	NPYLR7 agonist max-min
Cc1nc2ccc(C(=O)N3CCCC(CNC(=O)c4ccc(F)cc4)C3)cc2nc1C (stereo not drawn) across the screens: 4.6&11.0	1.2&11.0
C#CCN(C)Cc1ccccc1 across the screens: -4.6&-0.9&1.4	-4.7&-5.0&1.5
CC(C)(C(N)=O)N1CCN(C(=O)c2cc(C(F)(F)F)cc(C(F)(F)F)c2)CC1 across the screens: 12.7	11.4
CCC(c1nc2ccccc2c(=O)n1-c1ccc(OC)cc1)N(Cc1ccccc1)C(=O)c1cc(C(F)(F)F)cc(C(F)(F)F)c1 (stereo not drawn) across the screens: -0.9	16.2
CCN(CC)c1ccc(/C=N\NC(=O)CSc2nnc(-c3ccc(Cl)cc3)n2-c2ccccc2)c(O)c1 across the screens: 6.7	7.6

The list goes on:
Each structure is followed by: NPYLR7 agonist, NPYLR7 agonist max-min
COc1ccccc1OCC1CN(C(=O)Cc2ccc(OC)c(OC)c2OC)CCO1 (stereo not drawn)
 : 24.2, 23.3
CCOC(=O)C1(CC2CCCCO2)CCN(C(=O)Nc2cc(Cl)ccc2OC)CC1 (stereo not drawn)
 : 2.8, -0.4
O=S(=O)(c1cn[nH]c1)N1CCc2[nH]c3ccc(F)cc3c2C1
 : 2.7, 6.5
CCS(=O)(=O)N1CCN=C1SCc1ccc([N+](=O)[O-])cc1
 : 11.3, 12.9
COc1cccc(-c2ccc(SCCN3CCCCC3)nn2)c1
 : 10.4, 4.6
COc1ccc(C(NC(=O)C2CCN(CCOc3ccc(Cl)cc3Cl)CC2)c2ccccn2)cc1 (stereo not drawn)
 : 30.5, 21.3
COc1cccc(CO[C@]2(C(=O)NCC3CCCO3)CC(OCc3cccc(OC(F)(F)F)c3)[C@@H]3OC(C)(C)O[C@@H]3C2)c1 (stereo partly drawn)
 : 6.0, 12.1
O=C(NCc1ccccc1-n1ccnc1)C1CCN(c2ccccc2)C1=O (stereo not drawn)
 : -1.2, -4.8
CCOC(=O)N1CCCC(C(=O)NCc2csc(-c3ccccc3)n2)C1 (stereo not drawn)
 : 0.3, -1.9
O=C(CN1CCCc2cc(F)ccc21)Nc1nccs1
 : 0.5, -2.5
Cc1ccc(-c2cc(C(=O)N3CCSCC3)cc(S(=O)(=O)N3CCOCC3)c2)s1
 : 7.9, -0.8
Cc1ccc(S(=O)(=O)Oc2ccc(-c3nc4ccccc4o3)cc2CN2CCOCC2)cc1
 : 11.9, 15.3
C#CCNC(=O)CN1CCN(C(=O)NCC2(c3cccs3)CCCC2)CC1
 : -2.7, 227.5
CN1C(=O)C(=Cc2ccccc2OCc2ccccc2)C(=O)N(C)C1=O
 : -6.5, -4.1
Cc1ccoc1C(=O)N1CCCn2nc(C(=O)Nc3ccccc3)cc2C1
 : 2.0, 2.0

A few values from the list.
Under NPYLR7 agonist, C#CCNC(=O)CN1CCN(C(=O)NCC2(c3cccs3)CCCC2)CC1 is entered as -2.7
Under NPYLR7 agonist, Cc1ccoc1C(=O)N1CCCn2nc(C(=O)Nc3ccccc3)cc2C1 is entered as 2.0
Under NPYLR7 agonist max-min, O=S(=O)(c1cn[nH]c1)N1CCc2[nH]c3ccc(F)cc3c2C1 is entered as 6.5

Continuation:
Each structure is followed by: NPYLR7 agonist, NPYLR7 agonist max-min
CCc1cc2cc(C(=O)Nc3ccc(C)cc3)sc2s1
 : 5.3, 11.8
COC(=O)c1ccc(COC(CN2CCN(C(=O)Nc3cc(F)ccc3F)CC2)c2ccc(Cl)cc2)cc1 (stereo not drawn)
 : -4.1, 8.9
CC(C)c1ccc(NC(=O)Cn2nc(-c3cccs3)c3sc(N4CCCC4)nc3c2=O)cc1
 : -1.8, -7.8
CCCC(=O)N1N=C(c2ccco2)CC1c1cc2cccc(C)c2nc1Cl (stereo not drawn)
 : 19.5, 14.1
O=C(Nc1ccccc1)C(C1CCCC1)N1CCN(C(=O)c2ccc(Cl)cc2Cl)CC1 (stereo not drawn)
 : -7.5, -11.8
COCC(=O)NC(C)C1c2cc(OC)c(OC)cc2CCN1Cc1cccc(C)c1 (stereo not drawn)
 : 2.8, 12.7
Cc1ccc(-c2cc3c(=O)n(CC(=O)Nc4cc(F)ccc4C)ccn3n2)cc1
 : 4.8, 4.9
OC(COc1ccc(Cl)cc1CN1CCCC1)CN1CCCCCC1 (stereo not drawn)
 : 2.8, 0.9
CCCCCC(=O)Nc1nnc(SCC(=O)c2ccc(Cl)c(C)c2)s1
 : -2.5, 4.6
CC1(C)CC(c2nccn2CC2CCN(C3CCCC3)CC2)CCO1 (stereo not drawn)
 : 6.3, 1.8
COc1cccc(-c2[nH]cnc2-c2ccccc2)c1OCCN(C)C
 : 13.8, 8.9
O=C1CCCCC1N(C(=O)CCn1cnnn1)c1ccccc1 (stereo not drawn)
 : -5.8, -6.7
O=S1(=O)NC(=NCCCCOc2ccccc2)c2ccccc21
 : 6.3, 1.9
